Screens deposited in PubChem BioAssay by several laboratories.
Vif A3G = inhibitors of Vif binding to APOBEC3G peptide, primary screen, biochemical, TR-FRET, GST-Vif 1-94, biotin-A3G peptide, dose response retest (AID 1117319); TR-FRET GST-Vif / biotin-A3G peptide binding; higher % means a stronger effect; test concentration not given here; strong numbers were not always called active; one-dose inhibition, %; IC50 in µM for titrated hits; 260,000 tested, 0.57% active;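 active = above the screen mean plus three standard deviations and confirmed in dose response; inconclusive = results disagree or hit not tested in dose response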;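 also: Vif residues 1-94 fused to GST binding biotinylated APOBEC3G peptide 110-148; 0% = full assay without inhibitor and 100% = GST in place of GST-Vif; retest series ran down from 100 µM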
LANA-H2B inh = blocks KSHV LANA binding to histone H2A/H2B | inhibition, % (concentration not given with the values) | cell-free LANA-H2A/H2B peptide, fluorescence polarization | AID 2629 | 320,000 tested, 0.6% active; in the data active = inhibition mostly above about 10%, no sharp cut-off; inactive = mostly below about 6.7%;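 also: stock transfer was 7.5 nL into about 10 µL; 0% = median of vehicle wells and 100% = median of positive control wells; one replicate is shown; the record names a cut of 25% in any replicate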
Target sequence (Q9QR71 whole entry, looked up): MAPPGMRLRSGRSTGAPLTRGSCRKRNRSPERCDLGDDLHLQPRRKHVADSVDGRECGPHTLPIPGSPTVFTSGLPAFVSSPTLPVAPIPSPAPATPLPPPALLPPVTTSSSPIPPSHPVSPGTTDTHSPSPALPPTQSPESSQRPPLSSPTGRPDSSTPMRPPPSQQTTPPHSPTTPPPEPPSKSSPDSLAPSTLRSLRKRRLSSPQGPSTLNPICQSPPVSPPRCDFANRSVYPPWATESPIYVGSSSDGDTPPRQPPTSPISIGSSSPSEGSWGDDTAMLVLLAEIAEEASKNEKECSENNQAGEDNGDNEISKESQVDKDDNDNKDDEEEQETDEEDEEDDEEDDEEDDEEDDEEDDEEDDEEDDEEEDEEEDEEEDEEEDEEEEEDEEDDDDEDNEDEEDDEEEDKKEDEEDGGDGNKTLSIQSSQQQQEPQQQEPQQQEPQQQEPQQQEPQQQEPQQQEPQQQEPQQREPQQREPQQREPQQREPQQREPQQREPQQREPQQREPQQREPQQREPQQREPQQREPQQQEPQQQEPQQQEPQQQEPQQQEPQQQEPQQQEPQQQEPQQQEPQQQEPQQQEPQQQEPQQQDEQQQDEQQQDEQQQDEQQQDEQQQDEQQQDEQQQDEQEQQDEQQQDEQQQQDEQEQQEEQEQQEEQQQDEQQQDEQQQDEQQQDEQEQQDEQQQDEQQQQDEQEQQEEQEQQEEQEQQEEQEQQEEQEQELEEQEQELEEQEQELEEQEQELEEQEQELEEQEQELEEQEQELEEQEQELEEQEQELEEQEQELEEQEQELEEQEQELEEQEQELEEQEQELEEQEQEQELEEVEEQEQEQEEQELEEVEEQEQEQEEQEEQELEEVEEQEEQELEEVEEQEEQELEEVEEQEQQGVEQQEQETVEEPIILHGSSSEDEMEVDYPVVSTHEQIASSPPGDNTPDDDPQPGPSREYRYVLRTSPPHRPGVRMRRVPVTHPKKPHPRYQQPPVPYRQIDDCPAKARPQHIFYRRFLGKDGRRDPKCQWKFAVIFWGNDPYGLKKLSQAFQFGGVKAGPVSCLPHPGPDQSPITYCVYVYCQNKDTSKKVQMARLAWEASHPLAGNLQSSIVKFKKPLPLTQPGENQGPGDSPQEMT
RanGTP-Imp inh = inhibitors of RanGTP-importin-beta interaction, primary screen, biochemical, FRET, CFP-Ran, YFP-importin-beta, homogeneous; cell-free CFP-Ran/YFP-importin-beta FRET ratio; inhibition, % (test concentration not listed); 300,000 tested, 1.1% active;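 active = most replicates above 15%; inconclusive = exactly half above 15%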;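 also: 0% = DMSO wells and 100% = Ran loaded with GDP instead of GTP; wells of about 40 µL received 100 nL stock; the first replicate is given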
HNF4A DNA FP = change in binding of human HNF4 alpha to DNA | AID 1224865 | 360,000 tested, 0.3% active | HNF4a-FITC DNA binding, fluorescence polarization, 1 h | activity change, % at 10 µM; in the data active = activity change above about 30%, passing the limit was not always enough;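 also: controls were the assay level and a saturating level of protein; the project sought stronger binding though the title names inhibitors; some compounds called inactive have numbers as strong as hits; positive values seem to mean higher polarization but the record does not say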
B2AR ag = activates human beta-2 adrenergic receptor causing internalization | response, % (test concentration not listed) | AID 504454 | Am2.2-beta2AR cells, FAP receptor internalization, flow cytometry; reference of the scale not given here | 340,000 tested, 0.43% active | P07550;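 active = response above a set limit, near 3 SD of response in nonfluorescent compounds, cut at about 42% in these data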;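 also: stock transfer was 100 nL into about 11 µL; a reference agonist was the positive control; negative values mostly stem from fluorescent compounds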
Calb FLC = C. albicans growth modulation with fluconazole; C. albicans CaCi-2 (fluconazole-resistant clinical isolate) + fluconazole, Alamar Blue growth, 48 h; growth inhibition, % (no concentration beside the values); 300,000 tested, 0.57% active; AID 1979;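 active = most replicates above 75%; inconclusive = exactly half above 75%; inactive = most below 75%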;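 also: all wells also contain fluconazole at 8 µg/ml as a sub-toxic cotreatment; 0% = median of DMSO wells and 100% = median of geldanamycin control wells; wells of about 8 µL received 7.5 nL stock; the first replicate is given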
ALR inh = blocks human ALR sulfhydryl oxidase activity; 290,000 tested, 3.8% active; inhibition, % (concentration not given with the values); P55789; purified ALR, DTT oxidation, H2O2 HRP-luminol luminescence;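 active = mean and each replicate at 75% or more; inconclusive = only one of the two met; inactive = neither met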;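 also: stock transfer was 7.5 nL into about 7.5 µL; 0% = neutral wells and 100% = wells with inactivated enzyme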
The depositor's hits bear a star; i = inactive; ? = inconclusive; / = no result given; & = joins results of further samples.

SMILES	Vif A3G	LANA-H2B inh	RanGTP-Imp inh	HNF4A DNA FP	B2AR ag	Calb FLC	ALR inh
CN(c1ccccc1)S(=O)(=O)c1ccc(C(=O)Nc2nnc(C3CC3)o2)cc1	2%	2.4	-1.8	3.1	1	-13	-19
CCn1c(=O)n(CC)c2cc(N3CCCC3)c(NC(=O)c3cccc(OC)c3)cc21	/	15	2.3	2.2	8	14	66
Cc1ccc(NC(=O)CSc2nc3ccccc3nc2N2CCOCC2)cc1	/	4.0	-3.6	0.9	-13	-1	-9
CCOC(=O)c1cc(C(C)(C)C)nc(SC)c1C#N	-4%	30*	3.3	1.3	4	13	/
COc1cc(NS(=O)(=O)c2ccc(NC(=O)c3cccs3)cc2)nc(OC)n1	/	-0.1	?	1.9	-3	20	2
CCOc1ccc(NC(=O)CN2CCN(CC(=O)Nc3ccc(C(N)=O)cc3)CC2)cc1	-4%	3.5	-2.5	0.5	-4	-10	-15
COc1ccc(-c2sc3ccccc3c2C#CC2(O)CCCCC2)cc1	/	-1.7	-4.2	2.9	1	2	3
CCCCCOC(=O)c1[nH]c2c(c1C)C(=O)CC(c1ccco1)C2 (centres undefined)	4%	-2.5	4.4	-5.4	11	0	25
CC1(C)c2ccccc2C(=O)c2ccccc21	-3%	/	/	-5.9	-4	/	/
COc1ccc(/C=C/C(=O)c2ccccn2)cc1	27%	-0.6	7.4	-0.1	4	36	-27
Cc1ccc(C(=O)OCC(=O)NNC(=O)c2ccc([N+](=O)[O-])cc2)o1	-4%	6.1	-3.5	-6.4	-6	25	-13
O=C(Nc1c2c(nn1-c1ccccc1)CS(=O)C2)c1ccco1 (centres undefined)	-8%	-0.6	-2.5	-0.3	-3	-6	-3
CC(C)C[C@@]12C(=O)N(c3ccc(Br)cc3)C(=O)N1[C@H](c1ccc(Br)cc1)[C@@H]1C(=O)N(C(C)(C)C)C(=O)[C@@H]12	/	3.4	5.1	0.0	-7	8	3
O=C(CCCNC(=O)/C(=C/c1ccc(Br)cc1)NC(=O)c1ccccc1)OCc1ccccc1	/	1.6	1.9	-4.6	1	-7	-2
CCN(CC(=O)NCc1cccs1)C(=O)/C=C/c1cccc(OC)c1OC	/	-1.6	0.5	-0.8	3	-10	-20
COc1ccc(C)cc1S(=O)(=O)N(C)CC(=O)Nc1ccc2c(c1)OCCO2	-1%	-4.7	4.2	2.0	-7	-16	-3
COc1ccc(-c2cccc(NS(=O)(=O)c3cc([N+](=O)[O-])ccc3C)c2)nn1	11%	/	0.5	3.1	6	17	/
Cc1ccc(CCNC(=O)C2CCCN2S(=O)(=O)c2ccc3c(c2)CCC(=O)N3)cc1 (centres undefined)	-1%	-4.7	2.5	1.2	12	-12	-4
Cc1ccc(-c2[nH]ncc2/C=N/n2c(COc3ccccc3)nc3ccccc3c2=O)cc1	-13%	-5.3	-7.4	2.9	2	2	/
CCCC(=O)Nc1cccc(NC(=S)NC(=O)C(C)Oc2ccc(Cl)cc2Cl)c1 (centres undefined)	/	0.3	6.9	-1.8	-9	-2	-14
Cc1cccc(NC(=O)C2c3ccccc3Oc3ccccc32)n1	2%	-0.5	3.6	0.9	6	-21	-4
CCOc1ccc(N/C=C/C(=O)c2ccc(C)cc2)c([N+](=O)[O-])c1	2%	-5.6	-3.0	-1.3	-4	-3	-6
Cc1c(NC(=O)CC(=O)Nc2c(C)n(C)n(-c3ccccc3)c2=O)c(=O)n(-c2ccccc2)n1C	3%&-4%	0.4	-1.3	-3.3	-3	-2	-1
CCOc1ccc(C2OC34CCCCC3C(C#N)(C#N)C2(C#N)C(=N)O4)cc1OC (centres undefined)	?	-5.0	45*	-33	-1	2	/
COc1ccc(CCNC(=O)CC(=O)N/N=C/c2ccc(C(=O)O)cc2)cc1OC	/	4.2	-1.3	1.0	14	1	/
NC(=O)CSc1nnc(-c2ccccc2F)n1C1CC1	/	-3.6	-1.7	-2.4	-2	1	-4
CCOc1ccc(NS(=O)(=O)c2cc(C(=O)N3CCCC3)ccc2Cl)cc1	4%	-2.6	1.8	0.4	-13	9	1
Cc1cccc(-n2c(C)c(C)c3c(N)ncnc32)c1	-5%	-3.9	7.3	6.0	-1	1	17
COc1ccc(-c2ccc(NS(=O)(=O)c3cc([N+](=O)[O-])ccc3C)cc2)nn1	/	-1.9	0.1	0.6	1	6	-5
Cc1cccc(/C(N)=N/OC(=O)c2ccoc2C)c1	/	1.5	3.0	3.0	-2	10	3
O=C(C1CC(c2ccc(F)cc2)=NO1)N1CCN(Cc2ccccc2)CC1 (centres undefined)	4%	-0.2	2.0	-1.8	-7	6	-4
CCCCC(CCCC)=N/N=C/c1c(O)n(CC)c2cc(C3=NNC(=O)CC3)ccc12	-2%	1.5	1.4	20	13	-1	13
COc1ccc(C)cc1S(=O)(=O)Nc1ccc(-n2c(C)nc3ccccc3c2=O)cc1	4%	6.6	2.2	1.5	-1	0	-17
CC(C)[C@H](NS(=O)(=O)c1ccccc1)C(=O)Nc1nccs1	/	-0.2	/	-6.4	/	/	-2
Cc1c(NC(=O)C2C3C=CC(C3)C2C(=O)O)c(=O)n(-c2ccccc2)n1C (centres undefined)	10%	-1.5	3.7	2.1	-4	3	-10
COCCn1nnnc1C(C(C)C)N(Cc1ccccc1)Cc1cc2cc(OC)ccc2[nH]c1=O (centres undefined)	?	/	/	-1.1	-5	/	/
O=C(COC(=O)CNC(=O)c1ccc([N+](=O)[O-])o1)Nc1ncc(Cl)cc1Cl	12%	5.7	/	-2.3	6	/	-22
CC(C)c1onc(C(=O)NCc2ccc(F)cc2)c1[N+](=O)[O-]	/	-0.2	-0.4	-4.6	-9	39	1
O=C(O)c1ccc(S(=O)(=O)Nc2ccc3c(c2)OCCO3)cc1	7%	0.8	-1.6	-2.8	-1	-2	-5
CC(NC(=O)CSC1=NCCS1)c1ccccc1 (centres undefined)	5%	5.2	1.7	-2.7	0	-8	-2
Cc1[nH]c2ccccc2c1C(=O)C(C)OC(=O)c1ccc(NC(=O)CC#N)cc1 (centres undefined)	4%	13	-5.9	7.0	4	1	100*
COc1ccccc1NC(=O)c1ccc(NS(=O)(=O)c2ccc(F)c(F)c2F)cc1	10%	-5.8	-1.1	-0.3	3	?	?
Cc1cc2nc3n(c2cc1C)CC1CC(C(=O)NCCc2cccs2)N(C)C31 (centres undefined)	-2%	6.3	-2.2	-2.2	2	-1	-4
COc1ccc(NC(=O)Nc2ccccc2C(N)=O)cc1OC	2%	-2.9	/	-0.7	-13	-2	-4
O=C(O)c1cccnc1-c1ncccc1C(=O)O	8%	2.5	0.6	4.4	5	3	-7
O=C(O)C1C2CCC(CC2)C1C(=O)N1CCN(Cc2ccc(F)cc2)CC1 (centres undefined)	/	-1.1	2.1	0.5	5	1	9
O=C(c1ccc(S(=O)(=O)N2CCCCC2)cc1)N1CCc2ccccc2C1	-7%	2.6	1.0	-0.7	-2	28	1
O=C(CNC(=O)c1ccc2c(c1)S(=O)(=O)N=C1CCCCCN12)Nc1ccc(F)c(F)c1	4%	1.1	-1.9	3.0	-11	0	2
CSc1nc2ccccc2n1CC(=O)Nc1c(C)cccc1C	-3%	0.3	-0.6	-4.3	0	-9	-15
Cc1ccccc1N1CCN(Cc2c[nH]c3ccccc23)CC1	>100µM*	-8.3	?	1.1	12	-18	40

The list goes on.
SMILES	Vif A3G	LANA-H2B inh	RanGTP-Imp inh	HNF4A DNA FP	B2AR ag	Calb FLC	ALR inh
S=C(NCCN1CCOCC1)Nc1ccc(Cl)cc1	/	-1.9	7.1	-0.9	4	-2	1
COC(=O)C1C2C=CC3(CN(CC4CCCO4)C(=O)C13)O2 (centres undefined)	-3%	3.9	-0.2	-1.9	-2	-4	-3
C[C@H](CO)N1C[C@H](C)[C@@H](CN(C)C(=O)Nc2ccc(C(F)(F)F)cc2)Oc2c(NC(=O)CCC(F)(F)F)cccc2C1=O	/	2.0	/	-2.7	2	/	-5
COc1cc(C(=S)N2CCOCC2)ccc1OC(=O)c1ccccc1	/	-13	0.6	3.6	2	4	-5
CCOC(=O)c1ccc2c(c1)C1C=CCC1C(C(=O)OCC)N2 (centres undefined)	/	2.0	2.3	-15	4	8	/
Cc1cc(C)nc(Sc2c(F)c(F)c(C(F)(F)F)c(F)c2F)n1	?	-5.5	3.4	-2.1	-5	-3	/
O=C(Nc1ccc(-c2csc(-c3ccccc3)n2)cc1)c1ccccc1	7%	-1.7	1.6	2.0	4	-14	-7
O=C(Nc1ccccc1N1CCOCC1)c1cc(F)cc(F)c1	-2%	-1.6	11	-0.5	1	97*	/
CCOC(=O)N1CCC(NC(=O)c2ccc3c(c2)N(Cc2ccccc2)CCS3)CC1	-8%	-1.2	2.4	-1.8	-1	3	58
COc1ccc(NC(=O)CSc2nc(N)c(NC(=O)c3ccccc3F)c(=O)[nH]2)cc1	-8%	-18	-1.5	1.7	-11	-2	-2
Cn1cnc([N+](=O)[O-])c1S(=O)(=O)Oc1ccc(Cl)cc1	2%	/	/	1.5	14	/	/
C=CC[C@H]1CC(C)=C[C@H](CC=C)N1C(=O)c1cc(COc2ccccc2SC)on1	-4%	-3.0	2.5	2.5	11	8	-6
Cc1cccc(OCCCC(=O)NC2CCCCC2)c1	-7%	-8.7	-4.4	-0.2	-9	-11	-4
COc1cc(C2C3=C(COC3=O)OC(C)(C)Oc3cc4c(cc32)OCO4)cc(OC)c1OC (centres undefined)	0%	/	/	0.0	11	/	/
Cc1cc(Br)ccc1NC(=O)CNC(=O)Cc1ccc(S(=O)(=O)N2CCOCC2)s1	/	2.4	0.5	1.9	-4	/	0
Cc1ccc(CNCc2cc3c(C(C)(C)C)nn(-c4ccccc4)c3[nH]c2=O)cc1	-3%	-1.3	-0.3	-3.1	12	-13	-2
COc1ccc(CNC(=O)C2CC=CCC2C(=O)O)cc1OC (centres undefined)	-8%	-4.4	1.8	3.2	-2	-5	-8
CN(CC(=O)O/N=C(\N)c1ccccn1)S(=O)(=O)c1ccccc1	-1%	-2.3	1.4	0.5	-8	24	-1
CCOc1ccc(N2CC(C(=O)Nc3ccccc3N3CCCC3)CC2=O)cc1 (centres undefined)	/	0.6	5.9	-0.1	2	3	94*
O=C(CN1C(=O)NC2(CCOc3ccccc32)C1=O)c1ccc(Cl)s1 (centres undefined)	-3%	i	/	2.4	-8	/	0

Complete entries as entered above. Screens in order: Vif A3G	LANA-H2B inh	RanGTP-Imp inh	HNF4A DNA FP	B2AR ag	Calb FLC	ALR inh
Listed for Cc1cccc(/C(N)=N/OC(=O)c2ccoc2C)c1 → /	1.5	3.0	3.0	-2	10	3
Listed for CCOC(=O)N1CCC(NC(=O)c2ccc3c(c2)N(Cc2ccccc2)CCS3)CC1 → -8%	-1.2	2.4	-1.8	-1	3	58
Listed for O=C(CCCNC(=O)/C(=C/c1ccc(Br)cc1)NC(=O)c1ccccc1)OCc1ccccc1 → /	1.6	1.9	-4.6	1	-7	-2

The results go on.
SMILES	Vif A3G	LANA-H2B inh	RanGTP-Imp inh	HNF4A DNA FP	B2AR ag	Calb FLC	ALR inh
CCCCCCSc1ccc([C@H]2N[C@@](Cc3ccccc3)(C(=O)OC)[C@H]3C(=O)N(C)C(=O)[C@@H]23)cc1	/	-1.0	1.9	2.6	-7	-6	1
O=C(Cc1ccccc1F)NNC(=O)c1cccs1	3%	-5.3	/	0.0	-5	/	-1
Cc1ccc(NC(=O)COC(=O)C2CCC(=O)N2)c([N+](=O)[O-])c1 (centres undefined)	25%	0.8	-0.7	-1.5	-6	-12	-2
O=C(COc1ccccc1O)N1CCN(C(=O)c2ccco2)CC1	5%	1.6	3.5	-2.7	3	1	45
O=[N+]([O-])c1ccc(O)c2ncccc12	47µM*	-9.2	1.6	-2.1	0	99*	/
COc1cc(N2CCCC2)c(OC)cc1/C=C(/C#N)c1cccc(Br)c1	2%	-4.3	-7.7	97	1	-3	-14
O=C(Nc1ccc(Cl)cc1)c1ccc(OC2CSC2)cc1	/	1.1	4.7	5.2	4	-5	-12
